Screens as filed in PubChem BioAssay.
Mtb hypoxia rep: reduces hypoxia-regulated biosensor signal in M. tuberculosis | actives 0.1% (n = 300,000) | fluorescence inhibition, % (no concentration beside the values) | M. tuberculosis hypoxia-regulated fluorescent reporter, fluorescence;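 active = 35 to 45% if threefold the growth effect, above 45% if 1.5-fold the growth effect; inactive = the rest, general growth blockers included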;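 also: wells of about 50 µL received 100 nL stock; 0% = vehicle wells and 100% = reference inhibitor wells; whole bacteria with a GFP reporter of the hypoxia response; strong numbers were not always called active; many hits fall short of the cut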
PrP UTR inh: suppresses PrP 5' UTR mRNA reporter expression | cell-based PrP 5' UTR mRNA reporter, plate reader | inhibition, % (concentration not given with the values) | actives 0.35% (n = 340,000) | AID 488862;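 active = every replicate at 50% or more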;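 also: 0 = median of the neutral control wells; tested in H4 reporter cells; numbers are from one replicate; inactives centre near -14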
RN4220 kill: S. aureus RN4220 growth inhibition. OD600, 16 h. inhibition, % (no concentration beside the values). actives 0.33% (n = 330,000). AID 1259311;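 active = z-score of -3 or lower and OD600 up to 0.18 on both plates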;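 also: plate controls were untreated cells for no effect and reference antibiotic for full effect; stock transfer was 100 nL into about 80 µL; one replicate is shown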
BJeLR lethal: BJeLR cell viability loss. BJeLR (HRASV12) viability, CellTiter-Glo ATP luminescence, 48 h; reference of the scale not given here. inhibition, % (no concentration beside the values). actives 0.17% (n = 300,000);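 active = replicate mean above 50%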;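 also: 50 nL library stock added to about 25 µL; numbers are from one replicate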
ugtP null kill: compounds lethal to S. aureus RN4220 ugtP deletion mutant; OD600 growth, 16 h; some inactives read as strong as hits; growth inhibition, % (no concentration beside the values); actives 0.54% (n = 330,000);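 active = z-score under -3 and OD600 up to 0.15 on both plates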;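 also: plate controls were untreated wells for no effect and antibiotic for full effect; wells of about 80 µL received 100 nL stock; the first replicate is given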
Autofluor counter: compound fluorescence in toxin protease inhibitor counterscreen; fluorescence intensity (concentration not given with the values); compound autofluorescence counterscreen, microsphere flow cytometry; stronger effect = higher value; AID 624483; actives 3.1% (n = 360,000);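 active = at least 3 SD above the mean of all compounds, about 16000 in these data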;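 also: 100 nL of 1 mM stock went into each well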
Mtb hypoxia rep growth: further read-out of Mtb hypoxia rep, marked with its call; growth inhibition, %; measured here: M. tuberculosis growth (absorbance);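 0% = vehicle and 100% = reference antibiotic; read after six days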
Active calls of the source: *; x = no result given.

Molecule	Mtb hypoxia rep	Mtb hypoxia rep growth	PrP UTR inh	RN4220 kill	BJeLR lethal	ugtP null kill	Autofluor counter
CC(=O)OC(C(=O)NCCN1CCOCC1)c1c(F)cccc1F (configuration not stated)	2	3	11	1.6	-4	5	1990
O=C(CS(=O)(=O)Cc1ccccc1)N1CCN(c2cccc(C(F)(F)F)c2)CC1	5	11	-29	-4.3	5	5	8322
CC(=O)c1ccc(OCc2cc(C(=O)NCC3CCCCO3)no2)cc1 (configuration not stated)	0	-5	-37	-0.5	4	4	5576
Cc1noc(C)c1C(=O)NC(C)C12CC3CC(CC(C3)C1)C2 (configuration not stated)	0	4	-24	1.1	3	-5	2673
O=C(COC(=O)c1ccccn1)Nc1ccc2c(c1)OCCO2	1	3	0	6.3	x	7	5747
Cc1ccc(S(=O)(=O)N2CCC3(CC2)OCCN3S(=O)(=O)c2cccs2)cc1	-4	2	-18	2.7	4	10	5236
Cc1ccc(S(=O)(=O)N(C)c2c(C)ccc(S(N)(=O)=O)c2C)cc1	4	8	-28	-0.7	x	13	5917
CCc1ccc(C(=O)NNC(=O)CN2C(=O)NC3(CCCC3)C2=O)cc1	0	1	-27	4.3	x	8	7411
CC(=O)Nc1nc(-c2ccc3c(c2)CCN3C(=O)C2CC2)c(C)s1	-6	-6	-17	3.5	-8	1	4387
COc1ccc(NC2=C3CC(C)CC=C3N(c3ccc(OC)cc3)C2=O)cc1 (configuration not stated)	-9	-1	-5	11	1	12	2482
Cc1cccc(C(N)=NOC(=O)Cc2ccccc2)c1	0	-1	x	2.4	x	-2	x
CCCN(CC(=O)Nc1ccccc1OC)C(=O)Cn1[nH]c(=O)c2ccccc2c1=O	3	6	6	5.9	x	2	3444
COC(=O)c1cccc(NC(=O)c2cccnc2)c1	x	x	-16	-3.1	1	-3	4267
COc1ccc(N(CC(=O)N/N=C/c2cccs2)S(=O)(=O)c2ccccc2)cc1	x	x	-20	x	-11	x	2236
CC(C)CC(NC(=O)OC(C)(C)C)C(=O)NC(CO)C(O)C1CC1C(=O)N1CCCC1 (configuration not stated)	6	9	x	2.4	x	7	x
CC1(c2nnc(-c3ccncc3)o2)CC(c2c(Cl)cccc2Cl)=NO1 (configuration not stated)	7	10	12	8.3	8	-6	2724
O=C1NC(c2ccncc2)C(C(=O)c2cccs2)C(O)(C(F)(F)F)N1 (configuration not stated)	11	10	-17	4.3	4	0	9527
COc1cc(C(=O)N2CCCN(C)CC2)cc(OC)c1C	1	-6	-3	0.1	2	1	3996
CCN(CC)CCOC(=O)c1ccc(N=CC2=C(O)CC(C)(C)CC2=O)cc1	0	-1	-9	0.4	x	5	4811
C/C(=C\c1ccco1)C1C(C#N)=C(N)Oc2n[nH]c(-c3ccc(C)cc3)c21 (configuration not stated)	-2	3	-13	1.4	0	2	5126
O=C(Nc1nnc(SCc2ccc(F)cc2)s1)C1CC(=O)N(Cc2ccccc2)C1 (configuration not stated)	x	x	-17	x	6	x	10624
O=[N+]([O-])c1cc([As](=O)(O)O)ccc1O	0	2	-13	7.6	x	0	5819
COc1ccc(Cl)cc1N1C(=O)C2CCCN2C1c1ccccc1F (configuration not stated)	x	x	-31	1.0	2	8	6254
CCOc1ccccc1C(=O)NC(C(=O)N(C)c1c(N)n(Cc2ccccc2)c(=O)[nH]c1=O)C(C)C (configuration not stated)	-6	8	3	0.5	x	0	6141
Cc1cc(Oc2nc3c(C)cccn3c(=O)c2/C=C(\C#N)S(=O)(=O)c2ccc(Cl)cc2)ccc1Cl	7	0	-18	6.4	-3	-7	1899
COc1c(F)c(F)c(C(=O)Nc2ccccc2N2CCN(C(C)=O)CC2)c(F)c1F	x	x	-33	5.9	2	3	4158
C=CCNc1nc(Nc2ccc([N+](=O)[O-])cc2)nc(N2CCCC2)n1	-9	0	2	-0.2	1	-31	2502
COCCN(C(=O)Cn1nnc2ccccc21)C(C(=O)NC1CCCCC1)c1ccc(OC)cc1OC (configuration not stated)	-3	-7	9	11	1	0	3524
Cc1oc2c(C)c(O)ccc2c(=O)c1-c1cnn(-c2ccccc2)c1	7	4	-22	5.3	-6	-5	8372
CC(Sc1nc(-c2ccco2)nc2c1c(=O)n(C)c(=O)n2C)C(=O)O (configuration not stated)	5	8	-7	6.0	-16	-2	4724
Cc1ncc(CN2CCCC(CCC(=O)NCc3ccc(F)c(F)c3)C2)s1 (configuration not stated)	3	-3	-13	2.3	-7	-1	2613
O=C(O)CCN1C(=O)c2ccc(NC(=O)c3cccs3)cc2C1=O	10	6	-13	4.9	1	13	4594
CS(=O)(=O)N(CC(=O)NCCC1=CCCCC1)c1ccc2c(c1)OCO2	0	-3	-10	0.6	0	0	5058
Cc1nc2cc(NC(=O)c3ccc(N4C(=O)CCC4=O)cc3)ccc2s1	0	12	-13	0.3	-2	0	4678
C=CCNc1ncnc2c1[nH]c1ccccc12	-5	7	-18	3.1	8	-5	3576
CCCNc1ccc(S(=O)(=O)N(CC)CC)cn1	8	5	-9	6.2	-15	-2	2519
Cc1ccccc1N1CCN(S(=O)(=O)CC23CCC(CC2=O)C3(C)C)CC1 (configuration not stated)	5	8	-28	1.5	11	13	3412
O=C(CSc1ncn(-c2ccccc2)n1)NCc1ccccc1	0	13	-21	5.7	2	-7	23754*
CN(C)c1ccc(C2C3CCCc4ccccc4C3=NN2C)cc1 (configuration not stated)	3	10	-64	3.4	2	23	3914
CCOC(=O)C(NC(=O)CC)C(O)c1cccc([N+](=O)[O-])c1 (configuration not stated)	-1	2	-44	0.8	-7	0	10321

Compounds from the list above that contain a Cl atom (3):
Molecule	Mtb hypoxia rep	Mtb hypoxia rep growth	PrP UTR inh	RN4220 kill	BJeLR lethal	ugtP null kill	Autofluor counter
CC1(c2nnc(-c3ccncc3)o2)CC(c2c(Cl)cccc2Cl)=NO1 (configuration not stated)	7	10	12	8.3	8	-6	2724
COc1ccc(Cl)cc1N1C(=O)C2CCCN2C1c1ccccc1F (configuration not stated)	x	x	-31	1.0	2	8	6254
Cc1cc(Oc2nc3c(C)cccn3c(=O)c2/C=C(\C#N)S(=O)(=O)c2ccc(Cl)cc2)ccc1Cl	7	0	-18	6.4	-3	-7	1899

The results go on.
Molecule	Mtb hypoxia rep	Mtb hypoxia rep growth	PrP UTR inh	RN4220 kill	BJeLR lethal	ugtP null kill	Autofluor counter
Cc1ccc(OCc2occc2C(=O)O)cc1	7	0	-9	5.7	x	5	5189
CCc1nc(C)ccc1OCC(=O)N1CCc2c([nH]c3ccccc23)C1c1ccccn1 (configuration not stated)	5	0	-10	3.3	x	12	4349
O=C(NC1CCCC1)C(c1cccs1)N(C(=O)c1csnn1)c1ccccc1F (configuration not stated)	-1	-2	-20	0.0	-1	3	3645
Cc1ccc(C=NN2CCN(Cc3ccccc3)CC2)cc1	-15	-16	x	-2.3	x	-2	x
Cc1ccc(NC(=O)CCS(=O)(=O)c2cccc3nonc23)cc1	x	x	-11	x	1	x	4176
CCC(CO)Oc1cc(NCc2cccc(OC)c2)c2ncn(C(C)C)c2c1 (configuration not stated)	11	4	-1	1.8	x	-11	3927
COc1ccccc1NC(=O)COC(=O)CN1C(=O)C(=O)c2ccccc21	-3	-9	-7	1.6	1	3	3661
O=c1c(Cc2c(F)cccc2Cl)c(O)ccn1C1CCCCCC1	5	1	-15	1.0	0	-4	4366
CCCC/C(O)=C1\C(=O)CC(C)(C)CC1=Nc1ccccc1OC	9	9	-20	3.2	-1	2	20312*
CNC(=S)NNC(=O)c1cccn(Cc2ccc(Cl)cc2Cl)c1=O	-2	5	x	1.4	4	-10	x
CCOc1ccc(C2SCC(=O)N2c2c(C)n(C)n(-c3ccccc3)c2=O)cc1 (configuration not stated)	7	12	-22	-11	4	4	2712
CC(=O)N1c2ccc(S(=O)(=O)N3CCC(C(=O)N4CCC(C)CC4)CC3)cc2CC1C (configuration not stated)	-2	8	1	-1.0	10	1	5334
O=C(CNC(=O)c1ccncc1)N/N=C/c1ccc(O)cc1O	x	x	-26	x	-9	x	4153
CCCN(CCC)c1nc(N)nc(-c2cc(Cl)ccc2OC)n1	x	x	-5	-2.6	6	-4	2009
CCOCCCNS(=O)(=O)c1ccc(NC(=O)CN2C(=O)c3ccccc3C2=O)cc1	8	4	-30	2.8	0	4	4829
O=C(CNC(=O)c1ccc2ccccc2c1)NCc1ccc(F)cc1	5	5	-12	-5.3	2	-7	3301
COC(=O)c1ccc(NC(=O)CN2C(=O)c3ccccc3S2(=O)=O)cc1	10	-1	-12	2.2	3	4	4485
CCOc1ccccc1-n1c(C)cc(C=O)c1C	14	0	-7	6.7	-3	3	4183
O=C(CNC(=O)C1COc2ccccc2O1)N/N=C\c1ccc(Br)cc1 (configuration not stated)	x	x	10	x	7	x	3932
O=C(COc1ccc(Cl)cc1)N1CCN(Cc2ccc([N+](=O)[O-])cc2)CC1	2	8	-30	1.7	-2	0	2928
Cc1sc(NC(=O)Nc2ccccc2)c(C(N)=O)c1C	3	5	-50	3.1	6	3	4840
COc1cc(CCC(=O)OCC(=O)Nc2ccc(C)cc2Cl)cc(OC)c1OC	-1	-5	-19	4.3	-11	5	4268
CCCc1cc(N2CCOCC2)n2ncc(-c3ccccc3)c2n1	-3	-3	-10	-5.3	-10	65	3756
O=C(NCCCN1CCOCC1)c1ccc(Sc2ccc(F)cc2)c([N+](=O)[O-])c1	10	7	-16	-3.5	-3	2	2406
COc1ccc(CCNC(=O)c2ccc3nc(-c4ccco4)c(-c4ccco4)nc3c2)cc1OC	2	14	-11	21	x	23	2713
O=C(Oc1c(CN2CCOCC2)cc(Cl)c2cccnc12)c1ccc(F)cc1	3	15	-13	7.6	17	-6	22240*
O=C(CSc1nnc(-c2ccncc2)n1-c1ccccc1)NC1CC1	-12	-12	-14	-3.8	2	-9	4466
COc1cc(C(=O)N2CCN(c3cc(Cl)ccc3Cl)CC2)cc(OC)c1OC	2	6	56*	4.7	33	-6	4299
O=C(O)c1ccc(NN=Cc2c(F)cccc2Cl)cc1	4	8	x	1.6	x	3	x
O=C(NN=C1CCCc2ccccc21)c1ccc([N+](=O)[O-])cc1Cl	1	4	x	7.3	x	-2	x
CCN(CC)S(=O)(=O)c1ccc(Br)c(OC)c1	1	7	-10	4.0	6	6	10605
CCS(=O)(=O)Nc1cccc(C2=NN(S(C)(=O)=O)C(c3ccccc3)C2)c1 (configuration not stated)	5	0	-14	27	1	0	7796
CCOC(=O)C1CCN(C(=O)COC(=O)Cc2ccc(Cl)cc2)CC1	6	3	-7	0.9	2	6	3747
O=C(CSc1nnc(-c2cccc(S(=O)(=O)N3CCCC3)c2)n1-c1ccccc1)Nc1cccc(C(=O)O)c1	1	-2	-15	2.1	-2	10	4274
